Screens from PubChem BioAssay.
VACV Venus inh: qHTS for Stage-Specific Inhibitors of Vaccinia Orthopoxvirus: Venus Reporter Primary qHTS. Vaccinia virus Venus reporter expression, fluorescence. actives 0.46% (n = 330,000). Potency, µM (titrated, usually from 36.5 µM), for the others: at the highest dose activity change, negative = inhibition, usual class: inhibitors; active means well fitted inhibition curve with a large enough effect; inconclusive means small, poorly fitted or top-dose-only effect; inactive means no such curve, though single readings can be large or run the other way; tested in A549 cells; further: nearly all actives have a fitted effect of over 30% in size; inactives centre near -10
Vaccinia mCherry: qHTS for Stage-Specific Inhibitors of Vaccinia Orthopoxvirus: mCherry Reporter Primary qHTS. Potency, µM (top dose mostly 36.5 µM), for inactives: at the highest dose activity change, negative = inhibition, hits mostly inhibitors. Vaccinia virus mCherry reporter infection, fluorescence; about a quarter of the inactives have no number. AID 720579, 2013. actives 0.63% (n = 310,000); active = well fitted inhibition curve with a large enough effect; inconclusive = small, poorly fitted or top-dose-only effect; inactive = no such curve, though single readings can be large or run the other way; tested in A549 cells; further: nearly all actives have a fitted effect of over 35% in size; inactives centre near -10
Active calls of the source: *; i = inactive; u = inconclusive; x = not tested or not shown; & = joins results of further samples; [ ] = dose if it differs, or a comment. On the % scale 0 is the no-effect control and ±100 the full control effect; potency means the concentration at half of the fitted maximal effect.

SMILES | VACV Venus inh | Vaccinia mCherry
O=C(NC(Cc1cn(Cc2ccccc2)cn1)C(=O)O)OCC1c2ccccc2-c2ccccc21 (configuration not stated) | -11% | 1%
COc1ccc(/C=C/C(=O)NCCc2nc3ccccc3[nH]2)cc1 | -8% | 10%
O=C(NCc1ccccn1)c1nn(-c2ccccc2Cl)nc1CO | -6% | -7%
CCN(CC)c1nc2c(S(=O)(=O)c3ccccc3)nnn2c2ccc(Cl)cc12 | u | u
CCc1cccc(C)c1NC(=O)Cn1c(=O)cc(C(F)(F)F)c2c(C)nn(C)c21 | -1% | 4%
O=C(O)C1(O)C[C@@H](O)C(O)[C@H](O)C1 (some centres not stated) | -9% | i
COCCn1cnc2c(c1=O)c1nc3ccccc3nc1n2/N=C/c1ccc(OC)c(OC)c1 | -7% | i
O=[N+]([O-])c1cccc(C2=NCCS2)c1 | -8% | -5%
CN(C)C(=O)N1CCNCC1 | -5% | i
Cc1nc2nc3c(cn2n1)C(=O)CC(c1ccccc1)C3 (configuration not stated) | -2% | -9%
CSc1ccccc1OCc1cc(C(=O)NCCN2CCCc3ccccc32)no1 | -20% | u
CC(C)CCNC(=O)c1cc(C(=O)c2cc(Br)ccc2O)cn(CCC(C)C)c1=O | 16% | i
Cc1ccc(Oc2nc3ccccn3c(=O)c2/C=C(\C#N)C(=O)Nc2c(C)n(C)n(-c3ccccc3)c2=O)c(C)c1 | -14% | i
CCOC1(OCC)C(c2ccc(Cl)cc2)C(C#N)(C#N)C1(OCC)OCC (configuration not stated) | -11% | -17%
CCCCCC1CCC(C(=O)NCCN2CCOCC2)CC1 (configuration not stated) | -12% | -22%
COc1cc(C2NC(=S)NC(C)=C2C(=O)c2ccccc2)ccc1O (configuration not stated) | -4% | -1%
Cc1ccc(CN2CCN(C3CCCC3)C(CCO)C2)s1 (configuration not stated) | -6% | u
COc1ccc2c(c1)[nH]c1c(=O)n(/N=C/c3ccc(OC)c(CN4CCCCC4)c3)cnc12 | -5%[7.34 µM] | -8%[7.34 µM]
Cc1ccc(CC(=O)NCc2ccc3c(c2)OCO3)cc1 | -1% | -9%
CC(=O)c1sc(-c2ccccc2)cc1NS(=O)(=O)c1ccccc1 | -19% | -1%
CCc1ccc(CNC(=O)CCC(=O)n2ncc3cc(C)ccc32)cc1 | -20% | -6%
CC(=O)Nc1ccc(Oc2cnccn2)cc1 | -8% | -14%
C=CCSc1nnc2c(n1)OC(c1c(C)[nH]n(-c3ccccc3)c1=O)Nc1ccccc1-2 (configuration not stated) | -2% | x
CCOc1ccccc1N1C(=O)CC(N(O)c2ccccc2)C1=O (configuration not stated) | -3% | i
CCCCCn1nc(C(=O)N(CC(C)C)c2c(N)n(CCCC)c(=O)[nH]c2=O)c2ccccc2c1=O | -18% | -9%
COc1ccc(C)cc1NC(=O)CCS(=O)(=O)c1ccc2c(c1)CC(=O)N2C | -5% | -2%
Cc1ccc(CNC(=O)C2CC(c3ccccc3C(F)(F)F)=NO2)o1 (configuration not stated) | u | u
O=c1ncn(-c2cccc([N+](=O)[O-])c2)c2ccccc12 | u | -28%[7.34 µM]
Nc1nonc1-n1nnc(C(=O)N/N=C/c2ccc(O)cc2)c1CN1CCCCCC1 | -15% | i
O=c1c2ccccc2nc(Cc2ccccc2)n1-c1cccc(O)c1 | -15% | i
Cc1cc(OCc2cc(C(=O)N(C)CCCN3CCOCC3)no2)cc(C)c1Cl | -4% | -12%
CCOc1ccc(N(C)S(=O)(=O)c2c(C(=O)N3CCC(C)CC3)c(C)n(C)c2C)cc1 | -23% | i
Cc1cc2nc(-c3cccc(Br)c3)c(Cc3cccc(Cl)c3)n2c(C)c1Br | 10% | 1%
O=C(Nc1ccccc1)C1=C[C@H](c2csc3ccccc23)C[C@H](OCc2ccc(CO)cc2)O1 | u | -28%
COc1ccc(NC(=O)C23CCC(C2)C(C)(C)C3=O)cc1 (configuration not stated) | -10% | i
O=C(O)c1ccc(N/N=C/c2ccc(OC(=O)c3cccc(Cl)c3)cc2)cc1 | 0% | u
COc1ccc(C(=O)Nc2ccc(S(=O)(=O)N3CCN(C)CC3)cc2)cc1 | -5% | -8%
Clc1ccc2c(c1)C(c1ccccc1Cl)=NCc1nnc(N3CCN(CCOc4ccccc4)CC3)n1-2 | u | i
Cc1ccc(Nc2nnns2)cc1 | -21% | x
CC(=O)N/C(=C/c1ccc2c(c1)OCO2)C(=O)NCC(=O)O | -8% | i
COc1cccc2sc(N)nc12 | -8% | i
CCOCC(=O)N(CC)Cc1ccccc1 | -5% | -9%
COCc1cc(C)nc(Oc2ccccc2)c1C#N | -9% | -15%
Cc1ccc(Cn2ccc(NC(=O)CCSc3nc(-c4ccco4)cc(C(F)(F)F)n3)n2)cc1 | u | x
Cc1ccc(NC(=O)c2ccc(Cl)c(S(=O)(=O)N3CCCC3)c2)nc1 | -23% | -27%
CCN(CC1CCCO1)C(=O)c1cc(COc2ccc(F)cc2F)on1 (configuration not stated) | -19% | -6%
CCN1/C(=C\C(=S)Nc2ccccc2)Sc2ccccc21 | -28% | -26%
COc1ccc(NS(=O)(=O)N2CCOCC2)cc1 | -22% | -7%
COc1ccc(C)cc1NC(=O)c1sc2nc(-c3ccc(F)cc3)cn2c1C | -18% | -27%
CC(=Nc1ccccc1)C1=C(O)CCCC1=O | 7% | i
O=C(COC(=O)c1ccc(Br)o1)NCc1ccc2c(c1)OCO2 | -14% | i
Cn1c(=O)n(C)c2cc(N3CCOCC3)c(NS(=O)(=O)c3ccc(C(C)(C)C)cc3)cc21 | -17% | -7%
CCCC12CN3CCN(CC(C3)/C1=N\NC(=O)Nc1ccccc1)C2 | -12% | i
Cc1noc(C)c1NC(=O)Nc1cccc2c1O[C@H](CN(C)C(=O)Nc1ccc(C(F)(F)F)cc1)[C@@H](C)CN([C@H](C)CO)C2=O | -18% | i
COc1cccc(OC)c1C1=CC(=O)C[C@H](c2ccc3c(c2)OCO3)C1 | -27% | u
COc1cc(/C=N/NC(=O)c2ccc(Cl)cc2)ccc1OCC(=O)N1CC(C)OC(C)C1 (configuration not stated) | -5% | -21%
CCOc1ccc(-c2nc3c(c(SCC(=O)N4CCCCC4)n2)Cc2cccc(OC)c2O3)cc1 | -9% | -12%
CC(=O)N(C)c1ccc(NC(=O)Nc2ccc(C)c(C)c2)cc1 | 0% | 7%
Cc1ccc(CNC2=NCCCCC2)n1C | -7% | -13%
C[C@H](O)[C@@H]1CN2CCc3c([nH]c4ccccc34)[C@@H]2C[C@@H]1N(C)C(=S)Nc1ccc(C#N)cc1 | 5% | 13%

Next part
SMILES | VACV Venus inh | Vaccinia mCherry
CC(/C=C/c1ccc(O)cc1)=N/O | -10% | x
C=CC[C@H](CC(=O)N(CCO)Cc1ccccc1)C(=O)N[C@H](C)COC(=O)[C@@H](CC=C)Cc1ccc(F)cc1 | -18% | -18%
Cc1ccc(C(=O)C(C)OC(=O)C2CCN(c3ccc(C(F)(F)F)cn3)CC2)cc1C (configuration not stated) | -26% | -11%
O=C(NC1CCCc2ccccc21)c1n[nH]c(=O)c2ccccc12 (configuration not stated) | -10% | -10%
CCCNC(=O)C1(C)CCCN(C(=O)c2ccc(OC(F)F)cc2)C1 (configuration not stated) | -19% | -6%
CC(C)(C)c1ccc(NC(=O)COC(=O)C2=COCCO2)cc1 | -11% | -10%
Cc1ccc(C2C=NN(c3ccccc3)C2=O)cc1 (configuration not stated) | -20% | -7%
Clc1ccc(-c2cc(CN3CCOCC3)no2)cc1 | -8% | 0%
N#Cc1cn(-c2ccccc2)nc1-c1ccccc1 | u | u
CCC(C)C(NC(=O)c1ccc(Cl)cc1)C(=O)Nc1cccnc1 (configuration not stated) | -10% | -12%
CCn1c(C)nc2cc(C(=O)N/N=C/c3cccc(OC)c3O)ccc21 | u | 10µM*
O=C(COC(=O)c1cc(=O)[nH]c2ccccc12)NCc1cccs1 | -4% | -13%
CSc1ccc(CNC(=O)C2CCN(c3nc4ccccc4nc3C(F)(F)F)CC2)cc1 | -1% | -2%
CN(C)C(=O)CSc1nc2ccccc2c(=O)[nH]1 | -3% | x
CCCc1nc2ccc(C)cn2c1Cc1cccc(Cl)c1 | -8% | 30%

Part of the list above, with two lines to a compound.
Second line of a record: VACV Venus inh	Vaccinia mCherry
> Clc1ccc(-c2cc(CN3CCOCC3)no2)cc1
    -8%	0%
> N#Cc1cn(-c2ccccc2)nc1-c1ccccc1
    u	u
> CCC(C)C(NC(=O)c1ccc(Cl)cc1)C(=O)Nc1cccnc1 (configuration not stated)
    -10%	-12%
> CCn1c(C)nc2cc(C(=O)N/N=C/c3cccc(OC)c3O)ccc21
    u	10µM*
> O=C(COC(=O)c1cc(=O)[nH]c2ccccc12)NCc1cccs1
    -4%	-13%

Rewritten as a markdown table: entries from further up.
| Molecule | VACV Venus inh | Vaccinia mCherry |
| --- | --- | --- |
| CCC(C)C(NC(=O)c1ccc(Cl)cc1)C(=O)Nc1cccnc1 (configuration not stated) | -10% | -12% |
| CCCc1nc2ccc(C)cn2c1Cc1cccc(Cl)c1 | -8% | 30% |
| CCCNC(=O)C1(C)CCCN(C(=O)c2ccc(OC(F)F)cc2)C1 (configuration not stated) | -19% | -6% |
| N#Cc1cn(-c2ccccc2)nc1-c1ccccc1 | u | u |

Continued:
SMILES | VACV Venus inh | Vaccinia mCherry
O=C(Nc1cccnc1)C1(F)C(F)(F)C(F)(F)C(F)(F)C(F)(F)C1(F)F | -25% | x
Cc1ccccc1CN1CCN(C(=O)c2cccc(F)c2)CC1 | -4% | -6%
O=S(=O)(N/N=C1/CC(c2ccccc2)Oc2ccccc21)c1ccccc1 (configuration not stated) | -6% | -14%
O=C1c2ccccc2C(=O)N1c1ccccc1S(=O)C(F)(F)F (configuration not stated) | -16% | x
C[C@]12C(=O)N(c3ccc(Br)cc3)C(=O)N1[C@@H]1c3ccccc3OC[C@@H]1[C@H]2c1ccccc1 | -24% | i
O=C(CSc1nnc(-c2ccco2)n1CC1CCCO1)c1ccccc1 (configuration not stated) | -3% | -15%
COc1ccccc1CN1Cc2cccc3c2[C@@H](CC1=O)[C@H](O)[C@H](O)C3 | -6%&-9% | u
CCCC1=[N+](CC(=O)c2ccc(Br)cc2)CCn2cccc21 | 0%[7.34 µM] | -16%[7.34 µM]
CCn1ccnc1CNC(=O)CC1C(=O)NCCN1CCCc1ccccc1 (configuration not stated) | -5% | -18%
CC(=O)Cc1nsc(NC(=O)c2ccc(COc3ccc(C)cc3)o2)n1 | -7% | -20%
Cc1ccc(CNS(=O)(=O)c2cc(F)ccc2CN2C(=O)c3cccnc3C2=O)o1 | -18% | -16%
CC1(Cc2cc(Cl)ccc2C(F)(F)F)C(=O)Nc2cc(-c3ccccc3Cl)ccc21 (configuration not stated) | -8% | 34%[activator]
COc1ccccc1C(C)NCC(=O)Nc1ccccc1C(F)(F)F (configuration not stated) | -14% | -1%
COc1ccc2c(c1)c1c(c(=O)n(-c3ccccc3)c(=O)n1CC(=O)Nc1ccc(C)c(C)c1)n2C | -4% | 1%
C=CCNC(=O)C(C)Sc1ccc(Cl)cc1 (configuration not stated) | -6% | -5%

Of the compounds above, two have two or more sulfur atoms:
SMILES | VACV Venus inh | Vaccinia mCherry
CC(=O)c1sc(-c2ccccc2)cc1NS(=O)(=O)c1ccccc1 | -19% | -1%
CCN1/C(=C\C(=S)Nc2ccccc2)Sc2ccccc21 | -28% | -26%

(listing goes on)
SMILES | VACV Venus inh | Vaccinia mCherry
N#Cc1ncc(C(F)(F)F)cc1Sc1ccc(N)cc1 | -12% | x
CCN(CC)S(=O)(=O)c1ccc(C(=O)NCc2ccc3c(c2)OCO3)cc1 | -10% | -9%
CC1CCCCN1CCNC(=O)C1CC(=O)N(c2ccc(F)c(Cl)c2)C1 (configuration not stated) | -3% | x
CN(C(=O)c1ccc(N2CCCCC2)c([N+](=O)[O-])c1)C1CCS(=O)(=O)C1 (configuration not stated) | 9% | 1%
COc1cc2c(cc1NC(=O)CSCC(=O)O)oc1ccccc12 | -6% | -23%
CC(C)(C)NC(=O)Cc1ccc(Cl)c(Cl)c1 | -10% | i
Cc1cccc(CN2CCC(C(N)=O)CC2)c1 | -15% | -11%
O=C(N/N=C\c1ccc2c(c1)OCO2)c1ccc(Cn2cc(Br)c([N+](=O)[O-])n2)o1 | -19% | -6%
COc1ccc(S(=O)(=O)Nc2cccc3c2O[C@H](CN(C)Cc2ccccc2)[C@@H](C)CN([C@H](C)CO)C3=O)cc1 | -19% | i
O=C(CSc1nc2ccccc2n1Cc1cccc(F)c1)NCc1ccccc1 | -11% | -19%
C=C1C(=O)[C@]23C[C@H]1CC[C@H]2[C@]1(C)[C@@H](OC(C)=O)CC[C@@](C)(C(=O)O)[C@H]1C[C@@H]3O | u | 5µM*
O=C(c1ccc2ccccc2n1)N1CCN(Cc2c(F)cccc2Cl)CC1 | -3% | -20%
CC1CCc2nc(-c3cc4ccc(O)cc4oc3=O)sc2C1 (configuration not stated) | 11% | 7%
Cc1cccc(NC(=O)c2cccc(C(=O)Nc3cccc(C)c3)n2)c1 | 16% | -4%
COc1ccc(-c2cc(=O)c3ccccc3[nH]2)cc1 | -17% | 18%
O=C(Cc1ccc(F)cc1)Nc1ccc(F)c([N+](=O)[O-])c1 | -7% | -11%
CCOC(=O)c1cnc2ccc(OCC)cc2c1NCc1cccnc1 | -13% | -11%
Cc1ccc(Cn2c(C)c3cnn(CC(=O)N4CCN(c5ccc(F)cc5)CC4)c(=O)c3c2C)cc1 | -20% | -20%
C[C@H]1COc2cc(N3CCN(C)CC3)ccc2S(=O)(=O)N1 | -3% | 15%

This is a random part of the collection, and some 0.87% of all compounds hit somewhere here.
